YopH inh = inhibitors of Yersinia enterocolitica YopH tyrosine phosphatase | fluorescence Ex485/Em525 | inhibition, %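 (about 10 µM by stock and volumes)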 | 0.16% of 140,000 active | AID 898;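 active = inhibition of 50% or more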;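 also: controls were vehicle for no effect and minimum signal wells for full effect; inactives centre near -20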
Mtb growth = M. tuberculosis H37Rv growth inhibitors, H37Rv strain (AID 1626); M. tuberculosis H37Rv growth inhibition; higher % means a stronger effect; inhibition, % at 10 µM; hits with a dose series show IC50 in µM; 0.95% of 220,000 active;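 active = confirmed in a dose series; inconclusive = inhibition above 80% but not taken into the dose series; inactive = below 80% or under 30% at every dose of the series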;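 also: bacteria incubated seven days before Alamar blue readout; 0% = bacteria only wells and 100% = bacteria with antibiotic wells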
RecA splice inh = blocks M. tuberculosis RecA intein splicing; 0.75% of 290,000 active; AID 2221; inhibition, %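 (about 9 µM by stock and volumes)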; cell-free RecA intein splicing, fluorescence; in the data active = inhibition above about 30%; inconclusive = no clear call, values can overlap the other calls;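 also: 0% = vehicle wells and 100% = reference inhibitor control wells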
Target sequence (P9WHJ3 whole entry, looked up, canonical isoform): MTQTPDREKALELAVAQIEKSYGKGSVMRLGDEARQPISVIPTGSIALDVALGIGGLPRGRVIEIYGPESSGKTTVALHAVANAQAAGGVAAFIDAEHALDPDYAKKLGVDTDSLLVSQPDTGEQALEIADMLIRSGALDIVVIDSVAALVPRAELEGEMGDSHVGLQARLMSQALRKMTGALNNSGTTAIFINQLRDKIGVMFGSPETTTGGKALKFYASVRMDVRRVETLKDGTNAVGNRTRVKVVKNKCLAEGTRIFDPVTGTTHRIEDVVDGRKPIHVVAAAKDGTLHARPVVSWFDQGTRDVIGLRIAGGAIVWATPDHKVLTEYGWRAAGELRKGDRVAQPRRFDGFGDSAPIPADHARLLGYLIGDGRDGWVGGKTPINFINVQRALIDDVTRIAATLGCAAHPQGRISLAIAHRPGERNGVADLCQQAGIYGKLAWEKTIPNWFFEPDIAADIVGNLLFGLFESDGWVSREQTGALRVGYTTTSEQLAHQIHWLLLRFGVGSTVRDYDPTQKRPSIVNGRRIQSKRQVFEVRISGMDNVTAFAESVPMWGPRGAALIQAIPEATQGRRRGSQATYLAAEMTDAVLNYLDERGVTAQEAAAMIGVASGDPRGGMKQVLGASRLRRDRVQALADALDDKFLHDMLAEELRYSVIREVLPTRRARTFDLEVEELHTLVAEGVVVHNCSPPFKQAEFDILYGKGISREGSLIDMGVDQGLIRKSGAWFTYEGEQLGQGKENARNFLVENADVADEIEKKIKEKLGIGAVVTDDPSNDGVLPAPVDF
Mtb betalactam = beta-lactam sensitization of Mtb H37Rv; M. tuberculosis H37Rv growth with meropenem, percent inhibition; hits of this screen are not shown here; AID 434955; 0.27% of 330,000 active; inhibition, % at 25 µM;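 active = about 74% or more and at least 40 points above the plate without the antibiotic, then above 30% in a dose series; inconclusive = first-round hits that could not be retested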;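 also: growth measured after seven days incubation then overnight dye step; 0% = bacteria only wells and 100% = bacteria with antibiotic; twin plates without the antibiotic show which effects depend on it; some results filed as inactive read as strong as hits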
Arbovirus inh = blocks arbovirus infection; inhibition, % at 10 µM; AID 1251; 0.37% of 200,000 active; arbovirus infection cell-based antiviral screen;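 active = inhibition from about 30%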;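 also: bluetongue infection of BSR cells; cell survival read as ATP light after 72 h; 0% = infected wells without compound and 100% = uninfected wells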
Arbovirus inh repeat = second read-out of Arbovirus inh, no call of its own (marks repeat the call); inhibition, %; measured here: 10K subset replicate screen; many hits read low in the repeat;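 first of two repeat runs on a subset; 0% = infected and 100% = uninfected wells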
Starred values were filed as active, the others as inactive; ? = inconclusive; . = no result given. Not all compounds are listed. The share of hits here may be higher or lower than overall.

SMILES	YopH inh	Mtb growth	RecA splice inh	Mtb betalactam	Arbovirus inh	others
CCOc1cc(/C=N/NC(=O)COc2cccc(C)c2)ccc1OC(=O)c1cccs1	-8	.	-0.1	4	3
O=C(Nc1ccc(-c2ccc([N+](=O)[O-])cc2)cc1)c1ccccc1F	.	-3%	0.4	-3	-5
Oc1ccccc1-c1nnc(COc2ccccc2)o1	-70	?	2.5	98	-4	Arbovirus inh repeat=-1
Cn1[nH]c(=O)c(Cl)c(Cl)c1=O	-30	4%	-1.2	-1	-1
Cc1n[nH]c(C)c1S(=O)(=O)N1CCCC(C(=O)Nc2nccs2)C1 (stereo unspecified)	-16	0%	0.3	-10	4
Cc1oc(-c2ccc(Cl)cc2)nc1CN1CCCC(C(=O)NC2CC2)C1 (stereo unspecified)	.	.	-2.7	-5	.
C/C(=N\NC(=O)c1ccccc1)c1cc2cc([N+](=O)[O-])ccc2oc1=O	-66	3%	.	8	-5
Cc1cc(=O)oc2cc(OCC(=O)NCCCn3ccnc3)ccc12	.	.	-1.6	-6	.
COc1cc(OC)c2ccc(=O)oc2c1C(CC(=O)N1CCCC1)c1ccc2c(c1)OCO2 (stereo unspecified)	.	-2%	-0.3	4	.
COc1ccccc1C(=O)NCC1(c2ccccc2)CCCC1	.	5%	15	48	1
O=C(Nc1cnn(Cc2ccc(Cl)c(Cl)c2)c1)C12CC3CC(CC(C3)C1)C2	-9	-2%	1.6	-10	-24
O=C(Nc1ccc(C(=O)N2CCOCC2)cc1)c1ccc([N+](=O)[O-])cc1	.	.	-1.4	-8	.
COc1ccccc1NC(=O)/C=C/c1ccc(OC)c(S(=O)(=O)N2CCOCC2)c1	.	-7%	-2.2	2	-7
O=C(COc1ccccc1)NC(=S)N1CCc2ccccc21	0	?	-0.4	98	2
CCCCCCOc1ccc(C(=O)n2cnc(N)n2)cc1	-22	-4%	54*	-3	-8
COCCN1C(=NCCCOC(C)C)N[C@@H](c2ccccc2)C(C(=O)OC)=C1C	.	.	0.1	0	.
O=C(Nc1nc(-c2ccccn2)cs1)c1ccc2c(c1)OCCO2	.	.	-5.5	89	-18
Cc1ccccc1N/C(=C(/C(Cl)=C(Cl)Cl)[N+](=O)[O-])n1nnc2ccccc21	-26	0%	3.4	0	-9
O=C(CCNC(=O)Cn1cnc2ccccc2c1=O)NCC1CCCO1 (stereo unspecified)	.	-8%	-0.7	-11	-4
COc1cccc2c(SCC(=O)N/N=C/c3ccccc3)cc(C)nc12	21	-4%	-3.6	0	13
Cc1cc(C)cc(NS(=O)(=O)c2ccc3c(c2)c(=O)n(C)c(=O)n3C)c1	-22	0%	-2.3	12	-6
CCc1c(C)nc(Nc2nc(C)c3cc(OC)ccc3n2)[nH]c1=O	-47	13%	0.2	33	-23
CC(=O)N[C@@H](Cc1c[nH]c2ccccc12)C(=O)OCc1ccc(C#N)cc1	.	.	-1.3	4	.
CCC(=O)N1CCN(c2ccccc2NC(=O)c2cccs2)CC1	.	.	2.8	-6	.
CNC(=O)CN1C(=O)CSc2ncccc21	-58	-2%	.	-2	5	Arbovirus inh repeat=5
Cc1ccc(S(=O)(=O)NCC23C=CC(O2)C2C(=O)N(c4ccccc4)C(=O)C23)cc1 (stereo unspecified)	-4	-1%	0.9	-7	0
CCC(=O)Nc1ccc(N2CCCCC2)cc1	-16	13%	-3.6	3	4
Cc1ccc(CNC(=O)Cc2csc(Nc3nc(=S)[nH]c4ccccc34)n2)cc1	-36	.	-1.5	.	-15
CCOC(=O)c1c(C=O)c(C)n(Cc2ccc(Cl)cc2)c1C	-18	-1%	-2.9	-8	-7
CCOc1ccc(C(=O)Nc2cccc3ncccc23)cc1Cl	.	.	-0.8	2	.
Cc1ccc(OCCN2CCCCCC2)c(C)c1	-38	-16%	8.0	-13	11	Arbovirus inh repeat=10
NC(=O)C1CCN(CC(=O)N2c3ccccc3CCc3ccccc32)CC1	-8	-4%	7.0	4	2
COc1ccc(N=Nc2c(C)n[nH]c2C)cc1	.	.	1.6	2	.
CCOC(=O)c1nc(NNC(C)=O)sc1C	.	-4%	-4.3	-8	2
CC(C)CN1C(=O)C(=O)N(CC(=O)c2ccc[nH]2)C1=O	.	.	0.0	-9	.
Cc1nc(-c2c(C(F)(F)F)noc2-c2ccc(O)cc2O)cs1	-106	9%	-2.7	34	1
O=C(NNC(=O)c1ccccc1OCc1ccccc1Cl)c1csc(N2CCOCC2)n1	.	.	2.8	77	.
CCC(=O)Nc1ccc(C(=O)NNC(=O)c2ccc(C)cc2)cc1	.	.	-3.7	-3	.
Cc1nc(SCC(=O)Nc2ccc(OCc3ccccc3)cc2)n[nH]1	.	0.41µM*	1.4	98	-13
CC(=O)NCCc1nc2ccccc2n1Cc1ccccc1	-3	2%	0.4	0	3	Arbovirus inh repeat=1
COc1ccc2cc(/C=N/NC(=O)c3ccc(CN(c4ccc(C)c(C)c4)S(C)(=O)=O)cc3)c(Cl)nc2c1	-6	0%	-8.0	-2	-28
O=C(COc1cc(O)c2c(=O)cc(-c3ccccc3)oc2c1)c1cccc([N+](=O)[O-])c1	.	.	-1.9	1	.
CC1CCN(C(=O)C2CCN(S(=O)(=O)c3cccc4nsnc34)CC2)CC1	.	-8%	2.7	-2	2
O=C(COc1ccccc1Cl)Nc1cc(NC(=O)COc2ccccc2Cl)cc(C(=O)O)c1	.	.	0.5	-1	.
Cc1nc2c(C(=O)NCc3cccs3)cnn2c(C)c1Cc1ccc(F)cc1	-8	12%	1.8	4	9

Seven records drawn at random from those above:
SMILES	YopH inh	Mtb growth	RecA splice inh	Mtb betalactam	Arbovirus inh	others
CCC(=O)Nc1ccc(N2CCCCC2)cc1	-16	13%	-3.6	3	4
O=C(Nc1cnn(Cc2ccc(Cl)c(Cl)c2)c1)C12CC3CC(CC(C3)C1)C2	-9	-2%	1.6	-10	-24
C/C(=N\NC(=O)c1ccccc1)c1cc2cc([N+](=O)[O-])ccc2oc1=O	-66	3%	.	8	-5
O=C(COc1ccccc1)NC(=S)N1CCc2ccccc21	0	?	-0.4	98	2
Cc1n[nH]c(C)c1S(=O)(=O)N1CCCC(C(=O)Nc2nccs2)C1 (stereo unspecified)	-16	0%	0.3	-10	4
O=C(CCNC(=O)Cn1cnc2ccccc2c1=O)NCC1CCCO1 (stereo unspecified)	.	-8%	-0.7	-11	-4
CCOC(=O)c1c(C=O)c(C)n(Cc2ccc(Cl)cc2)c1C	-18	-1%	-2.9	-8	-7

More compounds follow.
SMILES	YopH inh	Mtb growth	RecA splice inh	Mtb betalactam	Arbovirus inh	others
CN(C)C(=O)N1CCCC(C(=O)NCc2ccccc2Cl)C1 (stereo unspecified)	-10	-10%	-0.4	7	6
O=C(NC1CC1)c1ccc(Cl)c(S(=O)(=O)N2CCOCC2)c1	.	.	0.8	4	.
CC(C)CCNC(=O)CN(CC1CCCO1)C(=O)CCC(=O)Nc1ccccn1 (stereo unspecified)	-42	-1%	-0.1	-7	-2
COc1ccc(Nc2nnc(C)c(=O)[nH]2)cc1	-4	1%	-2.4	0	13
COc1ccc(OCC(=O)N2CC3(C)CC2CC(C)(C)C3)cc1 (stereo unspecified)	-2	-9%	.	-1	-5	Arbovirus inh repeat=-5
CC(=O)c1c(C)n(-c2ccc(N(C)C)cc2)c2ccc(OCC(N)=O)cc12	-41	5%	-3.4	-1	5	Arbovirus inh repeat=-3
c1ccc2c(c1)nc1n2CN(Cc2ccc3c(c2)OCO3)CN1	-45	-11%	.	-1	2
Cc1c2cnn(CC(=O)NCCCN3CC(C)CC(C)C3)c(=O)c2c(C)n1Cc1ccc(Cl)cc1 (stereo unspecified)	.	.	-0.2	-1	.
CCc1nccn1-c1cc(C(C)(C)C)nc2c(-c3ccc(Cl)cc3)cnn12	-35	3%	-0.1	6	3
CCOc1ccccc1OCC(=O)N/N=C(\C)Cc1ccc(OC)cc1	-28	3%	-2.4	?	-14
COC(=O)N1CCN(c2ccc(Cl)c(Cl)c2)CC1	-11	-5%	6.5	-6	-3
CC(C)N1CCC(NC(=O)Nc2ccc3c(c2)OCO3)CC1	.	-1%	-4.9	-8	8
CCOc1ccc(Cl)cc1/C=N/NC(N)=O	.	9%	.	-2	-1
Cc1nc2ccccc2c2oc(C(=O)NCc3ccccn3)cc12	-18	0%	-0.2	-2	-1
O=C(/C=C/c1ccc2c(c1)OCO2)NCc1cn2cc(Cl)ccc2n1	.	2%	2.4	2	-4
N#CCCN(Cc1cccs1)C(=O)Nc1ccc(F)cc1	.	-1%	-15	-16	.
Cc1ccc(NC(=O)CCNS(=O)(=O)c2cccc3nsnc23)cc1F	.	.	3.4	-6	.
C=C(C)CC1N(c2cccc(OC)c2)C(=O)[C@@H]2C(C(=O)O)[C@H]3C=C[C@@]12O3 (stereo partly specified)	-43	-17%	-4.7	-9	4
COc1ccc(NC(=O)COC(=O)C2CCC(C(C)(C)C)CC2)c([N+](=O)[O-])c1 (stereo unspecified)	-17	2%	1.0	-3	7
COc1ccc(NC(=S)N(CCCN2CCCC2)Cc2cccn2Cc2ccc(Cl)cc2)cc1Cl	.	?	7.3	99	-31
CCC(=O)Nc1ccc(NC(=S)NC(=O)/C=C/c2ccccc2)cc1	-20	2%	-2.3	-1	0
O=C(NCc1ccco1)/C(=C\c1ccco1)NC(=O)c1ccc(Br)o1	-33	11%	-3.9	3	5
Cc1ccc(OC(=O)CN2C(=O)c3ccccc3C2=O)cc1C	.	.	-1.3	-2	.
Cc1cccc(OCc2nnc(NC(=O)c3cccs3)s2)c1	-13	-6%	3.3	-17	0
Cc1cc(NC(=O)c2nn3cccnc3c2Cl)no1	-3	-1%	-2.2	-4	-3
CN(C)c1ccc(N2CN=C3SCC(=O)N3C2)cc1	-36	-6%	9.7	6	-7
CCc1nnc(NC(=O)CSc2nnc(CNc3ccc(F)cc3)n2C2CCCCC2)s1	-45	5%	1.8	-18	4
CN(CCCNC(=O)c1ccc(CS(=O)c2ccc(Br)cc2)o1)Cc1ccccc1 (stereo unspecified)	.	.	-2.2	6	.
Fc1cccc(Cl)c1CSc1ccc(-c2cccnc2)nn1	.	15%	7.2	-2	-10
Cc1nc(N)c(CC(Br)CBr)c(Cl)n1 (stereo unspecified)	.	-5%	-2.1	-1	.

The list goes on; it opens with the 6 that closed the last part.
SMILES	YopH inh	Mtb growth	RecA splice inh	Mtb betalactam	Arbovirus inh	others
Cc1cc(NC(=O)c2nn3cccnc3c2Cl)no1	-3	-1%	-2.2	-4	-3
CN(C)c1ccc(N2CN=C3SCC(=O)N3C2)cc1	-36	-6%	9.7	6	-7
CCc1nnc(NC(=O)CSc2nnc(CNc3ccc(F)cc3)n2C2CCCCC2)s1	-45	5%	1.8	-18	4
CN(CCCNC(=O)c1ccc(CS(=O)c2ccc(Br)cc2)o1)Cc1ccccc1 (stereo unspecified)	.	.	-2.2	6	.
Fc1cccc(Cl)c1CSc1ccc(-c2cccnc2)nn1	.	15%	7.2	-2	-10
Cc1nc(N)c(CC(Br)CBr)c(Cl)n1 (stereo unspecified)	.	-5%	-2.1	-1	.
COc1ccc(Cl)cc1S(=O)(=O)N1CCCC(C(=O)NCc2ccccc2)C1 (stereo unspecified)	.	.	2.6	-4	.
CCCCCCCCCn1c2c(c(=N)c3c1CCC3)CCCC2	.	4.4µM*	.	.	-29
COc1cc(/C=N/NC(=O)CCN2CCCCC2)ccc1O	.	4%	-8.2	4	4
COc1ccc(NC(=O)NNC(=O)c2ccc3ccccc3c2O)cc1OC	.	.	-3.1	3	.
O=S(=O)(Nc1ccccc1O)c1ccc(Cl)nc1	.	-3%	-3.8	-7	.
COC(=O)c1cc(C#N)c(=O)[nH]c1C	.	-1%	.	-5	1
Cc1c(-c2cccc(Cl)c2)nc2ccccc2c1C(=O)OCC(=O)N(C)C1CCS(=O)(=O)C1 (stereo unspecified)	.	44%	4.7	56	-18
CCOC(=O)C(=O)C1=C(N2CCOCC2)/C(=C\c2ccc(F)cc2)CC1	-17	14%	5.2	31	0
CCOC(=O)C(NC(=O)C(Cc1ccc(N(CCCl)CCCl)cc1)NC(C)=O)C(C)C (stereo unspecified)	.	-10%	1.0	-9	-16
COC(=O)CC/C(=N/Nc1ccc(Cl)c(Cl)c1)C(=O)OC	.	2%	-1.0	62	-6
Oc1ccc(Br)cc1-c1ccn[nH]1	-27	7%	0.9	6	18
CCCCOc1ccc(C(=O)Nc2cccc(-n3cnnn3)c2)cc1OC	.	.	0.8	6	.
Cc1cc(NC(=O)CSc2nc(-c3ccco3)cc(C(F)(F)F)n2)no1	-32	5%	.	-10	-21
CCOC(=O)c1ccc(NC(=O)Nc2cccc(C)n2)cc1	.	6%	-0.8	7	-19
Cc1c(Cc2ccccc2)c(=O)oc2cc(OCc3nn[nH]n3)ccc12	-54	-3%	1.6	-6	5

Source: PubChem BioAssay
